Compound activity from PubChem BioAssay.
Vaccinia mCherry: inhibitors of vaccinia virus infection (mCherry reporter signal) | 0.63% of 310,000 active | Vaccinia virus mCherry reporter infection, fluorescence; about a quarter of the inactives have no number | Potency, µM (highest dose often 36.5 µM), inactives show at the top dose activity change, negative = inhibition, most hits filed as inhibitors | AID 720579; active = well fitted inhibition curve with a large enough effect; inconclusive = small, poorly fitted or top-dose-only effect; inactive = no such curve, though single readings can be large or run the other way; tested in A549 cells; also: nearly all actives have a fitted effect of over 35% in size; inactives centre near -10
VACV Venus inh: inhibitors of vaccinia virus (Venus reporter). Vaccinia virus Venus reporter expression, fluorescence. Potency, µM (series often up to 36.5 µM), without a hit: top-dose activity change, negative = inhibition, usual class: inhibitors. 0.46% of 330,000 active. AID 720580; active means well fitted inhibition curve with a large enough effect; inconclusive means small, poorly fitted or top-dose-only effect; inactive means no such curve, though single readings can be large or run the other way; tested in A549 cells; also: nearly all actives have a fitted effect of over 30% in size; inactives centre near -10
* hit, by the source's call; i = inactive; ? = inconclusive; . = no result given; & = joins results of further samples; [ ] = dose if it differs, or a comment. % is scaled to controls: 0 for no effect and ±100 for the full control effect; potency is read from the fitted curve at half-maximal effect.

SMILES	Vaccinia mCherry	VACV Venus inh
CCC(CO)Oc1cc(NC(=O)Cc2ccccc2F)c2ncn(C(C)C)c2c1 (stereo unspecified)	-3.4%	-23.2%
CN(C)[C@@H]1C(=O)C(C(N)=O)=C(O)[C@@]2(O)C(=O)C3=C(O)c4c(O)ccc(Cl)c4[C@@H](O)[C@H]3C[C@@H]12	-5.5%	-28.5%
O=C1C(=Cc2ccccc2)N2CCC1CC2	-6.7%	-4.4%
COc1ccc(CCNC(=O)CN2C(=O)COc3ccc(S(=O)(=O)N4CCCC4)cc32)c(OC)c1	-16.6%	-16.4%
CC(O)c1nc2ccccc2n1Cc1ccc([N+](=O)[O-])cc1 (stereo unspecified)	-5.2%	-6.2%
COc1cccc(C2/C(=C(/O)c3ccccc3)C(=O)C(=O)N2CCCC(=O)O)c1 (stereo unspecified)	-7.6%	3.9%
O=[N+]([O-])c1ccc(CN2CCN(c3ccc([N+](=O)[O-])cc3)CC2)cc1	-25.2%	?
COc1ccc(-c2nc(SCC(=O)c3ccc(OC)c(Br)c3)n[nH]2)cc1	-27.5%	-18.7%
CCC(=O)c1ccc(OCC(=O)NCCCN2CCOCC2)cc1	-22.2%	-9.1%
CS(=O)(=O)Nc1ccc(C(=O)NCc2cccnc2)cc1	-10.6%	2.6%
Fc1ccccc1NC(=S)N1CCC(c2ccccc2)C1 (stereo unspecified)	i	-22.4%
COc1ccc(CC(=O)N/N=C(\C)c2cccc(NC(=O)C3CC3)c2)cc1	i	-26.8%
Cc1cccc(NC(=O)c2cc(S(=O)(=O)NCCc3ccccc3)ccc2F)c1C	-7.6%	-8.9%
CO[C@H]1CN(C)C(=O)c2ccc(NC(=O)c3ccc4c(c3)OCO4)cc2OC[C@H](C)N(CC2CC2)C[C@@H]1C	?	-12.8%
CCCOc1ccc(N2C(=O)CC(SCc3nc4ccccc4[nH]3)C2=O)cc1 (stereo unspecified)	i	9.3%
COc1ccc2c(CC#N)c[nH]c2c1	-28.2%	-12.8%
O=C(/N=C1/c2ccccc2CN1c1ccccc1)Nc1ccccc1	i	-18.7%
O=C(CN1CCN(c2nc(-c3ccccc3)cs2)CC1)NNC(=O)c1ccco1	-2.5%	-4.2%
Cc1cccc(N2CCN(C(=O)CCS(=O)(=O)c3ccc4c(c3)oc(=O)n4C)CC2)c1C	?	-28.0%&-10.8%
CCC/C(=N\NC(=O)CNC(=O)/C=C/c1ccco1)c1ccccc1	-4.6%	-14.3%
CCN(CC)Cc1c[nH]c2c(C(=O)OC)cccc12	-2.4%	-13.4%
COc1ccc(CCNC(=O)Cc2cccs2)cc1OC	i	-3.2%
COc1ccc(-c2nsc(NC(=O)COc3ccccc3OC)n2)cc1	-2.4%	-2.4%
C=CCOC(=O)C1=C(C)NC(=O)NC1/C=C/c1ccccc1OC (stereo unspecified)	i	0.0%
O=[N+]([O-])c1ncn(C23CC4CC(CC(C4)C2)C3)n1	-8.9%	-2.8%
Cc1cccc(C)c1NC(=S)N/N=C/c1c(Cl)cccc1Cl	i	5.0%
CCOC(=O)c1c(NC(=O)COC(=O)c2cccnc2OCC)sc(C(=O)N(CC)CC)c1C	i	-15.2%
O=C(O)c1cccnc1-c1ncccc1C(=O)O	-8.9%	-7.4%
CN(C(=O)COC(=O)C1=COCCO1)C1(C#N)CCCCC1	i	-15.0%
Cc1nn(C)c(C)c1NC(=O)c1ccc(Cl)cc1	-9.6%	-8.8%
CC1CC(C)CN(C(=O)c2ccc3c(c2NCCO)C(=O)c2ccccc2C3=O)C1 (stereo unspecified)	-23.6%	15.3%
O=C(C(O)c1ccc(Br)cc1)N1CCC(Nc2ccc3[nH]ncc3c2)CC1 (stereo unspecified)	-2.2%	4.3%
CCCCC(CC)Cn1c(Oc2ccccc2)nc2c1c(=O)n(C)c(=O)n2C (stereo unspecified)	-11.5%	-13.5%
COc1ccccc1-c1cc(C(F)(F)F)nc(S(=O)(=O)CCCC(=O)Nc2cc(Br)ccc2O)n1	-12.3%	-4.5%
COc1ccc(CNC(=O)CN(C)S(=O)(=O)c2ccc3[nH]c4c(c3c2)CCCC4)cc1	-25.3%	-14.4%
COc1ccc(NC(=O)c2ccccc2CC[N+](=O)[O-])cc1	2.0%	-3.0%
CC(=O)c1cccc(NC(=O)C2Cc3c(-c4ccc5c(c4)OCO5)ccnc3O2)c1 (stereo unspecified)	?	-26.0%
Cc1c(NC(=O)c2nn3c(C(F)(F)F)cc(-c4ccccc4)nc3c2Br)c(=O)n(-c2ccccc2)n1C	-12.9%	-18.2%
Cc1cc(C)cc(NC(=O)C(C)N2Cc3ccccc3C2=O)c1 (stereo unspecified)	-10.9%	-4.9%
Cc1cc(C)c2nc(C(F)(F)F)nc(N3CC(C)OC(C)C3)c2c1 (stereo unspecified)	-6.5%	-10.6%
Cc1cccc(N2CCN(C(=O)NCc3noc4ccccc34)CC2)c1C	3.0%	-9.0%
Cc1cc(C(=O)N/N=C/c2cccc([N+](=O)[O-])c2)c(C)n1-c1ccccc1	?	-15.8%
CC(=O)N1CCCC1(C(=O)O)c1ccccc1 (stereo unspecified)	-12.6%	-11.6%
ON=C1CCCCCCCC1	-13.7%	-2.6%
COc1ccc(/C=N/Nc2nc(=O)[nH]nc2C)cc1OC	-0.8%	0.6%
Cc1c(CC(=O)NCCC(C)C)c(=O)oc2cc3c(cc12)CCC(C)(C)O3	-12.2%	-5.2%
O=C(Nc1ccccc1N1CCN(c2ccc(F)cc2)CC1)c1ccccc1	-7.4%	-9.3%
O=c1cc(O)nc(SC23CC4CC(CC(C4)C2)C3)[nH]1	-5.6%	-3.0%
Clc1ccc2nc(Nc3ccccc3Cl)nc(-c3ccccc3)c2c1	4.8%	-1.8%
CC(=O)c1cccc(S(=O)(=O)NCCC(=O)O)c1	i	-11.3%
New compounds follow.
SMILES	Vaccinia mCherry	VACV Venus inh
CC(Sc1ccccc1)C(=O)N/N=C/c1ccccc1 (stereo unspecified)	-14.6%	12.7%
Cc1cc(NC(=O)COc2ccc(N(C)S(=O)(=O)c3ccccc3)cc2)no1	-7.1%	-2.3%
CN(CCc1ccccc1)C(=O)c1ccc(NC(=O)Cc2ccc(NC(=O)C3CCN(C(=O)CCc4ccccc4)CC3)cc2)cc1	?	?
CC1CCc2onc(C(=O)Nc3ccc(Cl)cc3)c2C1 (stereo unspecified)	-3.5%	-9.8%
O=C(Nc1ccncc1Cl)c1ccncc1	i	-6.6%
C=CCn1c(=NC(=O)c2cccs2)sc2cc(NC(C)=O)ccc21	?	-6.0%
O=C1C2CC=CCC2C(=O)N1Nc1ccccc1 (stereo unspecified)	-7.8%	-13.1%
COc1ccccc1NC1=CC(=O)CC(c2ccccc2)C1 (stereo unspecified)	-14.1%	-14.6%
Cc1ccc(C(=O)OCC(=O)Nc2ccccc2N2CCOCC2)cc1	.	-13.5%
COc1ccc(C(CNC(=O)c2cccc(S(=O)(=O)Nc3ccccc3OC)c2)N2CCOCC2)cc1 (stereo unspecified)	-18.4%	-10.5%
COc1ccc(-n2nc(C(=O)NCC(=O)NC(C)C)c3ccccc3c2=O)c(OC)c1	i	0.2%
Cc1ccc(C(=O)N/C(=C\c2ccc(Cl)cc2)C(=O)NCC2CCCO2)cc1 (stereo unspecified)	i	2.5%
Clc1cccc(Nc2nc(-c3ccncc3)cs2)c1	?	?
c1ccc(C2=Nn3c(nnc3-c3ccco3)SC2)cc1	-14.4%	-18.4%
O=C(CN1CCCN(Cc2ccc(F)cc2)S1(=O)=O)Nc1ccc2c(c1)OCCO2	-3.9%	2.6%
COc1ccc(C(=O)CCC(=O)Nc2cccnc2)c(OC)c1	-15.1%	-12.9%
CC(C)CNC(=O)CSc1nnc(-c2ccc(Cl)cc2)n1N	i	-20.3%
Nc1nc(-c2ccccc2)cn1N	.	-22.8%
Cc1nc2c(-c3ccccc3)c(C)nn2c(C)c1CCC(=O)NCc1cccc(Cl)c1	-5.8%	-5.9%
COc1ccc(N2C(=O)NC3CC2(C)Oc2ccccc23)cc1 (stereo unspecified)	i	7.3%
CC1CC(C)CN(CCCNC(=O)CCC(=O)N2CC(C)Oc3ccccc32)C1 (stereo unspecified)	23.4%	-6.7%
O=C(Nc1ccc(OCc2ccccc2)cc1)Nc1cccnc1	i	-1.9%
O=C1CCCN1CCCN1CC(C(=O)N(CCO)Cc2ccccc2)CCC1=O (stereo unspecified)	i	-11.5%
COc1ccc(NC(=O)c2cc(C(C)C)on2)c(OC)c1	-13.8%	-2.9%
Cc1cc(C(=O)NCCN2CCOCC2)ccc1[N+](=O)[O-]	-6.6%	-8.7%
COCCNc1nc(N)c([N+](=O)[O-])c(NCc2ccccc2)n1	?	-24.7%
CCOC(=O)CC(=O)CSc1nc2ccsc2c(=O)n1Cc1ccccc1	-16.1%	-11.7%
BrC(=C\c1ccccc1)/C=N/Nc1ccc2nncn2n1	-20.2%	6.4%
CC1=C(C(=O)N(C)C)CC(CC(=O)NCCCCc2ccccc2)C(=O)N1Cc1ccccc1 (stereo unspecified)	-24.9%	-19.0%
O=C(NNC(=O)c1ccc(Br)s1)NC1CCCCC1	-2.3%	-2.9%
Cc1ccc(Cn2ccc(NC(=O)c3cc(C(C)C)on3)n2)cc1	-9.7%	-10.6%
CCNC(=S)NS(=O)(=O)c1ccc(F)cc1	-14.7%	-8.1%
Cc1nc2scc(C)n2c(=O)c1S(=O)(=O)Nc1ccc(N2CCN(S(C)(=O)=O)CC2)cc1	-23.4%	-18.7%
COc1ccc(-c2cn[nH]c2C)cc1OC	i	-13.3%
O=C1NC[C@@H](CCCCN2C[C@H](Cc3ccc(O)cc3)N(CCc3ccccc3)C(=O)C2=O)N(CC2CCCCC2)C1=O	40.6%[activator]	-8.1%
NC(=O)c1c(NC(=O)CS(=O)(=O)c2ccc(Cl)cc2)sc2c1CCCC2	-20.6%	-9.8%
Cc1ccc(S(=O)(=O)N(C)S(=O)(=O)c2ccc(C)cc2)cc1	i	-13.2%
CCOc1c(Br)cc(C(N)=O)cc1OCc1ccccc1	-3.7%	-24.9%
Cc1ccc2scc(N3CCN(c4ccccc4)CC3)c(=O)c2c1	i	-11.1%
Cc1cc2nc(N)sc2cc1[N+](=O)[O-]	-11.4%	-9.2%
Cc1ccc(NS(=O)(=O)c2ccc3[nH]c4c(c3c2)CCCC4)cc1N(C)C	?	-23.8%
CN(C(=O)COC(=O)c1nc(Cl)c(Cl)c(Cl)c1Cl)C1CCS(=O)(=O)C1 (stereo unspecified)	-17.9%	-21.6%
O=C(NC1CCCCC1)C(c1ccccc1)N1CCOCC1 (stereo unspecified)	.	-5.7%
O=C(NCC1Cc2cccc(-c3ncccn3)c2O1)C1CCCO1 (stereo unspecified)	-17.7%	-9.0%
Cc1ccc(C)c(/C(O)=C2\C(=O)C(=O)N(CCCn3ccnc3)C2c2ccncc2)c1 (stereo unspecified)	-13.0%	-3.0%
O=C(Cc1ccccc1[N+](=O)[O-])N/N=C/c1cccnc1	-3.6%	10.0%
O=C(NC1CCCCC1)c1ccc(CSc2nc3cccnc3n2Cc2ccccc2F)cc1	-24.9%	-13.7%
CCCCNC(=O)CC1Nc2ccccc2NC1=O (stereo unspecified)	?	-8.6%
CCCOc1ccc(S(=O)(=O)NCCN2CCOCC2)c2ccccc12	.	?
O=C(/C=C/c1cccc(F)c1)Nc1cc(S(=O)(=O)N2CCOCC2)ccc1N1CCCC1	-8.1%	-7.6%
Later entries:
SMILES	Vaccinia mCherry	VACV Venus inh
CC1[C@H]2Cc3ccc(O)cc3[C@]1(C)CCN2C (stereo partly specified)	i	-7.4%
CCn1c(Cc2ccccc2)nnc1SCc1ccc([N+](=O)[O-])cc1	-13.2%	-6.4%
O=C(NCCN1CCOCC1)c1ccccc1N1C(=O)[C@@H]2Cc3c([nH]c4ccccc34)C(c3ccc(F)cc3)N2C1=O (stereo partly specified)	-8.9%	1.7%
O=C(Nc1ccccc1Cl)c1c(F)c(F)c(F)c(F)c1F	-26.9%	-28.4%
COc1ccc(N2CC(NS(=O)(=O)c3ccc(F)cc3)CC2=O)cc1 (stereo unspecified)	0.4%	-2.0%
COC(=O)N/N=C/c1c[nH]c2ccccc12	-12.7%	1.8%
CN(C)CCNC=C(C(=O)Nc1ccc(Cl)cc1Cl)C(=O)Nc1ccc(Cl)cc1Cl	i	-17.4%
C/C(CC(=O)NC(C)(C)C)=N\NC(=O)COc1ccc(C)cc1Br	-20.6%	-10.9%
CC1(C(=O)Nc2ccc3c(c2)OCO3)CCN1C(=O)CCC1CCCC1 (stereo unspecified)	6.6%	-3.4%
Cc1cc(OCC(=O)Nc2cccc(S(=O)(=O)NC3=NCCCCC3)c2)ccc1Cl	-19.8%	-16.8%
CC12CCC3c4ccc(OCC(=O)O)cc4CCC3C1CCC2=O (stereo unspecified)	i	-10.7%
